Source: PubChem BioAssay (Fisher Drug Discovery Resource Center)
NPYLR7 agonist = mosquito NPYLR7 agonism. HEK293T NPYLR7/Galpha15, GCaMP6s calcium fluorescence. AID 1259423. activation, % at 10 µM. 270,000 compounds, 0.15% hits; in the data active means activation above about 40%;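 further: 0% = vehicle and 100% = reference agonist at the receptor; some compounds past the cut are filed as inactive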
NPYLR7 agonist max-min = further read-out of NPYLR7 agonist, marked with its call; activation, %; measured here: Max-Min RFU normalised activation; some inactives read as strong as hits;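 span of the calcium signal over five minutes; 0% = vehicle and 100% = native peptide agonist; compound fluorescence can raise it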
Numbers without * were called inactive; & = joins results of further samples. An excerpt (hit frequency here may not be typical).

1	CCNC(=O)N(C)c1c(CC)nc2c(OCCOc3ccc(F)cc3)cccn12
2	CN(C)c1ccc(NC(=O)C2CCC2)cc1CN(Cc1ccco1)C(=O)c1ccc(F)cc1
3	O=C(CNC(Cn1cccn1)c1ccccc1)Nc1cnccn1 (stereo not given)
4	Cn1ccnc1C(NC(=O)CC(c1ccccc1)c1ccccc1)c1ccccc1F (stereo not given)
5	OCc1cccc(OCc2ccon2)c1
6	Cc1ccc(C)c(NC(=O)CSc2nc3c(c(=O)n2Cc2ccccc2)SC(C)C3)c1 (stereo not given)
7	NS(=O)(=O)c1ccc(CCC(=O)N(Cc2ccccc2)C2CC2)cc1
8	COc1cccc(N2CCN(Cc3nc[nH]c3C)C(C)C2=O)c1 (stereo not given)
9	COc1ccc([N+](=O)[O-])cc1CN1CCCn2cccc2C1c1ccc(C)c(C)c1 (stereo not given)
10	CC(=NOCC(=O)NN=Cc1ccco1)c1cccs1

entry no.,1,2,3,4,5,6,7,8,9,10
NPYLR7 agonist max-min,-0.4,0.1,-6.0,-1.8,4.3,-2.6,1.6,5.4,10.0,12.5
NPYLR7 agonist,2.2,-6.1,-2.6,2.6,15.6,0.9,5.6,7.6,1.4,7.7

11	CCOC(=O)C1C(/C=N\Nc2nc(C)cc(C)n2)=NC(=O)NC1c1ccccc1 (stereo not given)
12	CCCCCc1ccc(C(=O)Nc2ccc(N3CCCC3)c(C(=O)NC(C)c3ccccc3)c2)cc1 (stereo not given)
13	Cc1cc(C(=O)CN2C(=O)C(=O)N(Cc3cccs3)C2=O)c(C)n1C1CC1
14	CCOc1cccc(CN(C(=O)c2cccc(C(C)=O)c2)C2CC2)c1
15	COc1ccc(CNC(=O)C2(c3ccccc3)CC2)cc1
16	CCNC(=O)CN(CC)CC(=O)Nc1cc(-c2ccc(Cl)cc2)nn1C
17	CCCCCCC1CCC(c2noc(-c3ccc(Br)cc3)n2)CC1 (stereo not given)
18	Cc1nc(C(=O)N2CCCC2c2nc(-c3ccccc3)no2)cs1 (stereo not given)
19	C=CCN(Cc1ccccc1Cl)C(=O)c1cccn1C
20	O=C1CCC(C(=O)N2CCc3sccc3C2)CN1CCc1ccccn1 (stereo not given)

entry no.,11,12,13,14,15,16,17,18,19,20
NPYLR7 agonist max-min,6.4,9.5,10.9,-19.5,5.5,9.0,-15.4,9.3,1.7,-1.3
NPYLR7 agonist,-0.9,15.3,10.1,-17.9,8.2,12.5,-8.2,13.4,6.7,3.1

21	CC1/C(=C/c2cn(C)c(=O)n(C)c2=O)C(=O)c2c(O)ccc(F)c21 (stereo not given)
22	O=C(N=Nc1c(O)[nH]c2ccccc12)c1ccc(Cl)cc1Cl
23	CCn1c(C)cc(C)c(C(=O)N2CCC(O)(c3ccc(C)cn3)CC2)c1=O
24	CN(C)C(=O)CCNC(=O)Nc1cccc(Cl)c1-n1cccn1
25	CCOC(=O)CCc1ccc(C(=O)C(F)(F)F)o1
26	COc1ccc(C2CC(c3cccc(C)c3)=NN2C(=O)CN2CCCCC2C)cc1 (stereo not given)
27	CC(=O)N[C@H]1C[C@@H](c2ccc(S(C)(=O)=O)cc2)O[C@@H](C2CCCCC2)C1
28	Cc1ccc(CN(Cc2ccc(F)cc2)C(=O)CN(CC2CCCO2)C(=O)c2ccc(Br)cc2)o1 (stereo not given)
29	CCOC(=O)CCC(=O)Nc1cc(C(C)(C)C)nn1-c1ccc(C#N)cc1
30	COc1ccc(-n2cc(CNCCc3cnn(C)c3)c(-c3ccccc3Cl)n2)cc1

entry no.,21,22,23,24,25,26,27,28,29,30
NPYLR7 agonist max-min,-1.9,-2.8,8.9,9.6,-8.3,7.5,-2.2,-16.0,13.1,16.8
NPYLR7 agonist,-0.2,7.1,12.5,16.7,-4.0,-2.1,2.8,-11.2,21.8,19.7

Single values from the list:
CC(=O)N[C@H]1C[C@@H](c2ccc(S(C)(=O)=O)cc2)O[C@@H](C2CCCCC2)C1 in NPYLR7 agonist: 2.8
Cc1ccc(CN(Cc2ccc(F)cc2)C(=O)CN(CC2CCCO2)C(=O)c2ccc(Br)cc2)o1 (stereo not given) in NPYLR7 agonist: -11.2
O=C(N=Nc1c(O)[nH]c2ccccc12)c1ccc(Cl)cc1Cl in NPYLR7 agonist max-min: -2.8
CC1/C(=C/c2cn(C)c(=O)n(C)c2=O)C(=O)c2c(O)ccc(F)c21 (stereo not given) in NPYLR7 agonist: -0.2
CCOC(=O)CCc1ccc(C(=O)C(F)(F)F)o1 in NPYLR7 agonist: -4.0
CCn1c(C)cc(C)c(C(=O)N2CCC(O)(c3ccc(C)cn3)CC2)c1=O in NPYLR7 agonist: 12.5
CCOC(=O)CCC(=O)Nc1cc(C(C)(C)C)nn1-c1ccc(C#N)cc1 in NPYLR7 agonist: 21.8

The list continues.
31	CN1CCc2nc3sc(C(=O)NCc4ccccc4)c(N)c3cc2C1
32	CCOC(=NC(=O)c1ccc(F)cc1)N(CCc1ccccc1)Cc1ccccc1
33	CC(SCc1csc(-c2ccc3c(c2)OCO3)n1)C(N)=O (stereo not given)
34	NC(=O)c1ccc(NC(=O)c2cn(Cc3ccccc3)nc2OCc2ccccc2)cc1
35	COCCn1c(=O)c2c(nc3n(-c4cc(C)cc(C)c4)c(C)c(C)n23)n(C)c1=O
36	Cc1nc(-c2cccc(C(F)(F)F)c2)nc(N2CCN(C(=O)COc3ccc(Cl)cc3)CC2)c1C
37	Cc1nccn1CCC1CCN(C(=O)CCC(=O)NC2CCCC2)CC1
38	Cc1c(C)n2c3c(=O)n(CCN4CCCCC4)c(=O)n(C)c3nc2n1C(C)C
39	COC(=O)C(C)OC(=O)c1c[nH]c2cc(Br)c(Br)cc12 (stereo not given)
40	COc1cccc(NC(=O)Nc2ccc(Nc3cc(OC(C)C)nc(C)n3)cc2)c1

entry no.,31,32,33,34,35,36,37,38,39,40
NPYLR7 agonist max-min,6.5,12.0,0.4,6.8,3.5,24.0,1.2,3.2,2.4,-4.5
NPYLR7 agonist,15.5,7.1,2.5,18.1,6.7,22.7,12.3,-0.4,-1.1,-4.4

41	COc1cc(OC)cc(C(=O)Nc2nnc(C(C)C)s2)c1
42	Cn1cccc1C(=O)NNS(=O)(=O)c1ccccc1C(F)(F)F
43	CCN(CC)c1c(C)nc2ccc(C(=O)N3CCN(C(=O)c4ccco4)CC3)cn12
44	Cn1ncc2c(=O)[nH]c(CN(CC3CCCCC3)C3CC3)nc21
45	O=C(C1COc2ccccc2O1)N1CCN(C(c2ccccc2)c2ccc(Cl)cc2)CC1 (stereo not given)
46	CNc1cc(N2CCCC(CNCCn3cccn3)C2)ncn1 (stereo not given)
47	CC(=O)NC1C(O)C(O)C(CO)OC1n1nc(-c2ccccc2Cl)n(-c2ccccc2)c1=S (stereo not given)
48	Cc1noc(C)c1CN(C)C(=O)C1Cc2ccccc2CN1 (stereo not given)
49	COc1ccc(-n2nc(C(C)(C)C)cc2NC(=O)CN(C(=O)c2cccc3ccccc23)C(C)C)cc1
50	Cc1ccc2c(c1)N(Cc1ccc3ccccc3c1)C(=O)C(C)S2 (stereo not given)

entry no.,41,42,43,44,45,46,47,48,49,50
NPYLR7 agonist max-min,5.5,-8.5,-14.0,-18.4,0.3,2.0,-5.5,-4.4,9.1,4.9
NPYLR7 agonist,6.4,-4.7,-6.2,-14.5,-3.9,4.0,-3.3,-1.8,8.8,6.2

51	Cc1cccc(NC(=O)c2nnn(Cc3cc(C)ccc3C)c2N)c1
52	Cc1ccccc1C1c2cccn2CCCN1Cc1cccc(C(F)(F)F)c1 (stereo not given)
53	CCCCN(C)S(=O)(=O)c1ccc2c(c1)nc(SCc1ccc(C(=O)OC)cc1OC)n2C1CCCC1
54	Cc1cnc(C(=O)N2CCc3c([nH]c4ccccc34)C2C2CCCCC2)[nH]1 (stereo not given)
55	Cc1nc(C)c(Cc2ccc([N+](=O)[O-])cc2)c(N2CCN(C(=O)C(C)(C)CCl)CC2)n1
56	COc1ccc(C)c2sc(N(CCN(C)C)C(=O)CCS(=O)(=O)c3ccc(Cl)cc3)nc12
57	COc1ccc(S(=O)(=O)n2nc(C)c(S(=O)(=O)N3CCCCCC3)c2C)cc1
58	CN1CCN(c2ccc(Nc3cc4[nH]c(-c5ccc(C(=O)N(C)C)cc5)cc4cn3)cc2)CC1
59	COCCCNC(=O)c1cc(NC(=O)COCc2ccccc2)ccc1N1CCN(c2ccccc2OC)CC1
60	Cc1cc(C)n(CC2(CNC3CCC4(CCNCC4)CC3)CC2)n1

entry no.,51,52,53,54,55,56,57,58,59,60
NPYLR7 agonist max-min,11.3,33.2,24.8,0.2&-8.3,-1.2,-7.4,-0.6,-13.9,12.3,1.5
NPYLR7 agonist,4.0,18.3,32.5,4.2&-6.5,-7.1,-3.0,1.5,-15.8,5.9,7.6

61	CC1(C)CC(=O)C2=C(C1)OC(=N)C(C#N)C2c1ccc(F)cc1 (stereo not given)
62	Cc1cccc(C(=O)Nc2ccc(OCC(=O)N(C)C)cc2)n1
63	COC(=O)COC(=O)c1sc(=S)n(C)c1C
64	C#CCOCC(O)CN(CCc1nc(-c2ccccc2)no1)Cc1ccco1 (stereo not given)
65	O=C1Nc2ccc(Br)cc2C(c2ccccc2Cl)C1N1CCCCC1 (stereo not given)
66	Clc1ccc(Nc2c3c(nc4nncn24)CCC3)cc1
67	Cc1c(NC(=O)c2c(O)cc(F)cc2F)cccc1C(=O)N1CCOCC1
68	CCN1CCN(c2c(CN(CCC(C)C)C(=O)c3ccc4c(c3)OCO4)c(C)nn2-c2ccccc2)CC1
69	COC(=O)C1=C(C)N(C)C(=O)NC1c1ccccc1F (stereo not given)
70	CCCCN(CC(=O)Nc1c(-c2ccccc2)c(C)nn1-c1ccc(C)cc1)C(=O)Nc1ccc(F)c(F)c1

entry no.,61,62,63,64,65,66,67,68,69,70
NPYLR7 agonist max-min,-2.4,-3.2,5.4,1.3,-4.7,-1.1,5.2,34.8,-16.2,2.3
NPYLR7 agonist,0.8,-1.9,18.0,1.3,-2.0,4.3,8.9,11.0,-17.0,-0.7

71	NC(=O)C1CCN(C(=O)c2cc(-c3ccco3)nn2-c2ccc(Cl)cc2)CC1
72	Cc1ccccc1OCC(O)CN(Cc1ccco1)Cc1ccc(F)cc1F (stereo not given)
73	COc1cccc(OC)c1-c1ccc(-n2cncc2C(=O)NCc2ccccc2Br)cc1
74	COc1ccc(CNC(=O)C2CC3CCC2C3)cc1 (stereo not given)
75	COc1ccc(C(=O)Nc2c(C)cccc2C(C)C)cc1F
76	CC(C)(C)c1ccc(OCCOc2ccccc2/C=N\n2cnnc2)cc1
77	COc1ccc2[nH]c(=O)c(CN(C)Cc3n[nH]c4c3CCC4)cc2c1
78	CNC(=O)[C@H]1C[C@]2(CCCCNC2=O)N(C(=O)COc2ccccc2)[C@H]1c1ccccc1
79	C#CCOCC(O)CN(Cc1cccn1Cc1ccccc1C)C1CC1 (stereo not given)
80	CCC1c2cccn2CCN1C(=O)c1coc2c1C(=O)CCC2 (stereo not given)

entry no.,71,72,73,74,75,76,77,78,79,80
NPYLR7 agonist max-min,-3.6,5.3,24.1,3.3,1.2,-2.5,-2.3,13.6,37.9,0.6
NPYLR7 agonist,-4.8,-0.3,25.2,1.9,1.1,-3.1,0.6,5.0,35.2,9.0

Shown with tabs: part of the list above
no.	Compound	NPYLR7 agonist max-min	NPYLR7 agonist
79	C#CCOCC(O)CN(Cc1cccn1Cc1ccccc1C)C1CC1 (stereo not given)	37.9	35.2
73	COc1cccc(OC)c1-c1ccc(-n2cncc2C(=O)NCc2ccccc2Br)cc1	24.1	25.2
78	CNC(=O)[C@H]1C[C@]2(CCCCNC2=O)N(C(=O)COc2ccccc2)[C@H]1c1ccccc1	13.6	5.0
71	NC(=O)C1CCN(C(=O)c2cc(-c3ccco3)nn2-c2ccc(Cl)cc2)CC1	-3.6	-4.8
80	CCC1c2cccn2CCN1C(=O)c1coc2c1C(=O)CCC2 (stereo not given)	0.6	9.0

Additional structures.
81	Cc1cc(C2CCCN2C(=O)NCCC(C)C)no1 (stereo not given)
82	Cc1noc(-c2cccc(F)c2)c1C(=O)NCCCN1CCOCC1
83	O=C(Nc1ccc(F)cc1F)N1CCN(CCCOC(c2ccc(Cl)cc2)c2ccc(Cl)cc2)CC1
84	C=CCn1c(SCC(=O)NC)nnc1-c1ccc(Cl)cc1
85	COc1ccc(-c2ccc(SC)nn2)cc1
86	CC1=CS(=O)(=O)CC1SC(=N)N (stereo not given)
87	CC(C)c1nccn1CCCNC(=O)c1ccc(-c2ccc3c(c2)OCO3)nc1
88	O=C(c1csc(-c2cccs2)n1)N1C[C@@H]2[C@H](C1)[C@H]1CC[C@@H]2O1
89	CCOC(=O)[C@H]1[C@@H](O)C(=O)N(C(C)C)C12CCN(C(=O)c1ccno1)CC2
90	CCN(CC(=O)Nc1cc(C)on1)c1ccccc1C
91	CN(C)CC1(O)CCCN(C(=O)Cn2ccc3ccccc32)CC1 (stereo not given)

entry no.,81,82,83,84,85,86,87,88,89,90,91
NPYLR7 agonist max-min,-4.2,5.8,5.7,-7.7,1.3,-7.7,0.4,8.3,11.8,-1.0,5.8
NPYLR7 agonist,1.4,5.8,1.1,-5.1,1.6,-2.1,4.3,8.1,3.8,-0.1,10.0
